Mtb H37Rv – Mycobacterium tuberculosis H37Rv growth inhibition, cell based, confirmatory dose response (AID 1949) | M. tuberculosis H37Rv growth inhibition | most inactive calls were filed without a number and no value below 0 was filed | inhibition, % at 10 µg/mL; hits with a dose series show IC50 in µg/mL | actives 1.6% (n = 100,000);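 active = confirmed in a dose series; inconclusive = about 50% or more but not retested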;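 also: bacteria grown 7 days with compound before Alamar blue readout; 0% = untreated bacteria and 100% = reference antibiotic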
Starred values were filed as active, the others as inactive; i = inactive; ? = inconclusive. Some of the compounds tested; rates above refer to the full screens.

structure | Mtb H37Rv
O=C(Nc1cccc(C(F)(F)F)c1)c1ccc2nc(-c3ccco3)c(-c3ccco3)nc2c1 | i
CCCCOc1cccc(NC(=O)CSC2=C(C#N)C(c3ccc(OCC)c(OC)c3)CC(=O)N2)c1 (stereo not given) | 0%
NC(=S)NNC(=O)c1ccccc1OCc1ccccc1 | i
O=C(Cn1nnc(-c2ccc(Cl)cc2)n1)NC1CCCC1 | i
COC(=O)c1cc(C)sc1NC(=S)NC(C)c1cn(C)nc1C (stereo not given) | 1%
COc1c(C)cccc1C(=O)NC(=S)Nc1ccc(-c2nc3cc(C)cc(C)c3o2)cc1 | 0%
CCOCCCNC(=S)NC1CC1 | i
CCOc1ccc(S(=O)(=O)NNC(=S)NCc2ccc(Cl)cc2)cc1 | i
COc1ccc(OC(C)C(=O)NC2CCCCCC2)cc1 (stereo not given) | i
CC(=O)NC(=S)Nc1cccc(C(=O)O)c1C | i
O=C(O)c1cccc(S(=O)(=O)Nc2cccc([N+](=O)[O-])c2)c1 | i
CCOC(=O)CSc1nc2ccccc2s1 | i
Cn1c(-c2ccncc2)nc2ccccc21 | i
COc1ccccc1S(=O)(=O)c1c(C)cc(C)cc1C | 2%
CCOc1cc(CNC(C)C23CC4CC(CC(C4)C2)C3)cc(Cl)c1OCC(=O)NC(C)(C)C (stereo not given) | 3.1µg/mL*
Cc1cccc(Cn2c(N3CCOCC3)nc3c2c(=O)n(C)c(=O)n3C)c1 | i
COc1ccc(OCCCCCCOc2ccc(OC)cc2)cc1 | i
Cc1ccc(S(=O)(=O)N2CCCC(C(=O)O)C2)cc1 (stereo not given) | i
Cc1ccc(S(=O)(=O)N(CC(=O)O)Cc2cccc(C)c2)cc1 | i
COC(C(=O)Nc1ccc(Br)cc1F)c1ccccc1 (stereo not given) | i
O=C1C(=O)N(CCc2ccccc2)c2ccc(Cl)cc21 | 4.7µg/mL*
CC(C)OCC(O)CN1CCN(C)CC1 (stereo not given) | i
CCOc1ccccc1NS(=O)(=O)c1cc(Br)c(C)cc1OC | i
Cc1ccccc1C(=O)N1CCN(c2nc(N3CCCC3)nc(N3CCCC3)n2)CC1 | 9%
O=C(C1CCCN1S(=O)(=O)c1ccc(Cl)cc1)N1CCc2ccccc2C1 (stereo not given) | i

A run of entries from the list above, for reference:
structure | Mtb H37Rv
COC(C(=O)Nc1ccc(Br)cc1F)c1ccccc1 (stereo not given) | i
O=C1C(=O)N(CCc2ccccc2)c2ccc(Cl)cc21 | 4.7µg/mL*
CC(C)OCC(O)CN1CCN(C)CC1 (stereo not given) | i
CCOc1ccccc1NS(=O)(=O)c1cc(Br)c(C)cc1OC | i
Cc1ccccc1C(=O)N1CCN(c2nc(N3CCCC3)nc(N3CCCC3)n2)CC1 | 9%
O=C(C1CCCN1S(=O)(=O)c1ccc(Cl)cc1)N1CCc2ccccc2C1 (stereo not given) | i

Other entries follow:
structure | Mtb H37Rv
O=C(CCN1C(=O)C2C3c4ccccc4C(c4ccccc43)C2C1=O)Oc1cccc2cccnc12 (stereo not given) | ?
O=C(c1csc2c1CCCC2)N1CCN(c2ncccn2)CC1 | i
COC(=O)Cc1ccc(NC(=S)NC2CCCC2)cc1 | i
COc1cccc(C2C(C(=O)c3ccco3)=C(O)C(=O)N2CCN(C)C)c1OC (stereo not given) | i
CC(=O)Nc1ccccc1NC(=O)c1cc(C)ccc1C | 5%
CC(C)(C)c1ccccc1NC(=O)COc1cc(Cl)c(Cl)cc1Cl | i
O=C(CSc1nc2scc(-c3ccccc3)c2c(=O)n1-c1ccccc1)NCCc1ccccc1 | i
COc1ccc(OC)c(NC(=S)NC(NC(=O)c2cccc(I)c2)C(Cl)(Cl)Cl)c1 (stereo not given) | i
COC(=O)c1c(C)oc2cc3c(C(=O)OC)c(C)oc3cc12 | i
O=C(Nc1ccc(NC(=O)C2CCCC2)cc1)C1CCCC1 | i
CCCCN1C(=O)c2cccc3c(C(C)=O)ccc(c23)C1=O | 6%
Cc1ccnc(NC(=O)c2ncn[nH]2)c1 | i
CC1=NN(c2ccccc2)C(=O)C12C1C=CC(C1)C2(C(F)(F)F)C(F)(F)F (stereo not given) | i
CCCS(=O)(=O)c1nc(S(=O)(=O)c2ccc(C)cc2)c(N2CCCC2)s1 | i
O=C(NC(=S)N1CCCCC1c1cccnc1)c1ccco1 (stereo not given) | i
Cc1cc(Cl)c(S(=O)(=O)Nc2ccon2)cc1OCC(=O)NC1CCCCC1 | 1%
O=C(O)c1ccc(NC(=S)NC(=O)c2cccc3ccccc23)cc1 | i
COC(=O)c1ccc(C(=O)OC)c(NC(=O)CN(c2cccc(OC)c2)S(C)(=O)=O)c1 | 0%
O=C1CC(c2ccccc2)CN1C(=O)c1ccc(F)cc1 (stereo not given) | i
Cc1c(NC(=O)c2ccc(-c3ccccc3)cc2)cccc1C(=O)O | i
N#Cc1c(NC(=O)c2ccco2)sc2c1CCC2 | i
CCc1ccccc1NC(=O)CCCN1C(=O)/C(=C\c2ccc(C)cc2)SC1=S | i
C=CCc1ccc(OCCCOc2ncnc3ccccc23)c(OC)c1 | 4%
O=c1nc(/C=C/c2ccccc2Cl)cc(C(F)(F)F)[nH]1 | 7%
O=S(=O)(Nc1ccc(Br)cc1)N1CCCCC1 | i

(next part)
structure | Mtb H37Rv
Cc1nn(-c2ccccc2)c2c1C(=O)CC(C)(C)C2 | i
COCCNC(=O)c1nn2c(C(F)(F)F)cc(-c3ccc(Br)cc3)nc2c1Cl | i
C=CCn1c(SCC(=O)Nc2cc(Cl)ccc2C)nnc1-c1ccc([N+](=O)[O-])cc1 | i
C=CCNC(=O)COc1cc(C)c(Br)c(C)c1 | i
COC(=O)c1c(-c2ccc(F)cc2)csc1NC(=O)Cc1ccc([N+](=O)[O-])cc1 | i
O=c1c2ccccc2nc(SCc2cc(=O)n3ccccc3n2)n1C1CCCC1 | 1%
CC(SCc1ccccc1)C(=O)Nc1ccccc1Sc1ccccc1 (stereo not given) | i
CNc1cc(N2CCN(C(=O)c3cccc(OC(C)C)c3)CC2)ccc1[N+](=O)[O-] | i
Cc1cc(OCc2ccc(F)cc2)c2c(C)c(C)c(=O)oc2c1 | i
COc1ccc(Cl)cc1NC(=O)c1cc(OC)c(OC)cc1OC | i
CCC(C)Cn1c(CC(C)(C)C)nc2ccccc21 (stereo not given) | i
O=C(COc1ccc([N+](=O)[O-])cc1)c1ccc2c(c1)CCCC2 | 5%
CCc1cc(=O)oc2cc(OC(=O)c3cc(OC)c(OC)c(OC)c3)c(Cl)cc12 | i
COc1ccc(C2SCC(=O)N2Cc2ccco2)c(OC)c1 (stereo not given) | i
CCOc1ccccc1CN1CCC(C(=O)N2CCN(c3ccccc3OCC)CC2)CC1 | i
Cc1cccc(NC(=S)/N=C(\N)Nc2nc(C)c3ccc(C)cc3n2)c1 | ?
CCOC(=O)Cc1c(C)nc2c(-c3ccccc3OC)c(C)nn2c1C | i
O=C1CC(N2CCN(C/C=C/c3ccccc3)CC2)C(=O)N1c1cccc(Br)c1 (stereo not given) | i
FC(F)(F)c1ccccc1NC(=S)NCc1ccccn1 | i
CCCS(=O)(=O)N1N=C(c2ccc(C)cc2)CC1c1ccco1 (stereo not given) | 1%
O=C(CCc1ccccc1)Nc1ccc([N+](=O)[O-])c2ccccc12 | i
COc1ccc(C)cc1N(CC(=O)Nc1cccc(F)c1)S(C)(=O)=O | 5%
CC(C)C(=O)N1CCN(c2ccc(NC(=O)c3sc4ccccc4c3Cl)cc2Cl)CC1 | i
CSc1cccc(NC(=O)C(C)NS(=O)(=O)c2ccc(F)cc2)c1 (stereo not given) | i
COc1ccc(NC(=S)Nc2ccn(C34CC5CC(CC(C5)C3)C4)n2)cc1OC | 3%

Additional results:
structure | Mtb H37Rv
CCN(CC)c1ccc(Nc2nc(-c3sc(NC(C)=O)nc3C)cs2)cc1 | i
O=C(Nc1ccc(I)cc1C(=O)NCc1ccc(Cl)cc1)c1ccco1 | i
CCOC(=O)c1ccc(NC(=O)Nc2ccc(OC)c(OC)c2)cc1 | i
COc1ccc(NC(=O)c2ccc(Cl)s2)cc1OC | i
CCC(=O)Nc1ccc2oc(-c3cccc(C)c3)nc2c1 | 14%
COC(=O)c1ccc(CS(=O)(=O)c2ccc(C)cc2)cc1 | i
Cc1ccc2c(c1)CCCN2C(=O)c1cc(C)on1 | i
CC(C)CC(CCC(=O)N1CCOCC1)C(=O)O (stereo not given) | i
COc1cccc(C2CC(=O)Nc3cc4c(cc32)OCO4)c1OC (stereo not given) | 0%
O=C(c1cc(-c2cccc(Br)c2)nc2ccccc12)N1CCCC1 | i
CC1CCCN(C(=O)C23CCC(C)(C(=O)O2)C3(C)C)C1 (stereo not given) | i
Cc1c(C=O)c2ccccc2n1CC(=O)N1CCc2ccccc2C1 | 2%
CCS(=O)(=O)N1CCC(N2CCC(C)CC2)CC1 | 3%
Cc1nc(/N=C(\N)Nc2ccccc2)[nH]c(=O)c1C | 4%
Cc1ccc(C(=O)NCCCc2ccccc2)c(Cl)c1 | i
O=C(Cc1cccc2ccccc12)Nc1sc2c(c1C(=O)NCc1ccco1)CCC2 | i
COC(=O)C1=C(C)OC(N)=C(C#N)C12C(=O)N(Cc1cccc(Br)c1)c1ccccc12 (stereo not given) | i
CC(=O)c1cn(CC(=O)NC(C)(C)C)c2ccccc12 | 3%
COc1ccc(CCNC(=O)C(Sc2ccccc2)c2ccccc2)cc1OC (stereo not given) | i
Cc1ccc(C(=O)NCc2nnc(SCC(=O)Nc3cc(Cl)c(Cl)cc3Cl)n2C)cc1 | i
Cc1cc(OCC(=O)Nc2ccc3c(c2)OCO3)cc(C)c1Br | i
Cc1ccc(N(Cc2ccc(C(=O)Nc3ccccc3C(=O)NC(C)C)cc2)S(C)(=O)=O)cc1C | i
CCN1CCN(c2ccc(NC(=O)c3cc4ccccc4cc3OC)cc2Cl)CC1 | 24µg/mL*
CNc1ccc(C(=O)Nc2nc3c(s2)CCCC3)cc1[N+](=O)[O-] | i
O=[N+]([O-])c1ccc(S(=O)(=O)NCCC2=CCCCC2)cc1 | 4%

(further entries)
structure | Mtb H37Rv
CCOC(=O)c1cc(C(=O)NCc2ccccc2)c(=O)[nH]c1C | i
COc1ccccc1NC(=O)CSc1nc(-c2ccccc2)cc(C(F)(F)F)c1C#N | 1.6µg/mL*
COc1cccc(OCCOCCNC(C)(C)C)c1 | 1%
O=S(=O)(c1ccc(Oc2ccc(Br)cc2)cc1)N1CCOCC1 | 4%
CCOc1cc(C)ccc1OCc1nnc(SCC(=O)c2ccc(Br)cc2)n1C | i
O=C(Nc1nc2ccc(F)cc2s1)c1cc2ccccc2o1 | i
CCn1c(SCC(=O)Nc2ccc([N+](=O)[O-])cc2C)nnc1-c1ccc(C)cc1 | i
Cc1ccc(N2CCN(C(=S)Nc3ccccc3F)CC2C)cc1 (stereo not given) | i
O=C(CSc1nnc(-c2ccc(Cl)cc2Cl)o1)N1CCCc2ccccc21 | 0%
COc1ccc(CCNC(=O)CN(c2ccc3c(c2)OCCO3)S(=O)(=O)c2ccccc2)cc1 | 2%
CC(C)CC(=O)Nc1nc2ccc(F)cc2s1 | i
Cc1ccc(C(=O)NCc2ccccn2)o1 | 1%
O=C(NCCO)c1ccccc1-c1ccccc1 | i
CCOC(=O)N1CCN(C(=O)CCSc2ccc(C)cc2)CC1 | i
CC1CCCCN1C(=O)CSc1nc(-c2ccccc2)cc(=O)[nH]1 (stereo not given) | i
Cc1ccc(NC(=S)NCCc2ccc(S(N)(=O)=O)cc2)cc1C | i
COC(=O)c1c(NC(=O)C2CCCCC2C(=O)O)sc2c1CCCCCC2 (stereo not given) | i
O=C(NCCc1ccccc1)c1ccc(-c2cccc([N+](=O)[O-])c2)o1 | i
COc1ccc([N+](=O)[O-])cc1NC(=O)c1cc(-c2cccc(C)c2)nc2ccccc12 | i
COc1cc(NC(=O)c2cc(Br)ccc2OC)ccc1NC(=O)c1ccccc1Cl | 30%
O=C(Nc1ccccc1N1CCOCC1)c1ccc(-c2ccc(Cl)cc2)o1 | 22%
CC(=O)Nc1cc(C(=O)NC2CCCC2)ccc1C | i
O=C(COc1ccc(Cl)cc1Cl)N1CCCC1 | i
CCCCOc1ccc(NC(=O)C(=O)NCCCn2ccnc2)cc1 | i
COc1ccc(C(CC(=O)O)C(=O)O)cc1OC (stereo not given) | i

Later entries
structure | Mtb H37Rv
Cc1cc(NC(=O)C(=O)NCc2ccco2)ccc1Br | i
N#C/C(=C\c1cn[nH]c1-c1ccc(Cl)cc1)S(=O)(=O)c1ccccc1 | i
CCCCN1C=C(C(=O)OC)C(c2cccc([N+](=O)[O-])c2)C(C(=O)OC)=C1 | 2%
c1ccc2c(Cn3nnc4ccccc43)cccc2c1 | i
O=[N+]([O-])c1ccc(N2CCN(S(=O)(=O)Cc3ccccc3)CC2)cc1N1CCN(Cc2ccccc2)CC1 | 9%
CCN(CC)S(=O)(=O)c1ccc(NC(=O)c2ccc(OC)c([N+](=O)[O-])c2)cc1 | i
CCOc1ccc(NCc2ccc(OCC(=O)Nc3ccc(C)cc3C)c(OC)c2)cc1 | 26%
S=C(c1ccc(OCCOc2ccccc2Cl)cc1)N1CCOCC1 | i
COc1cc(Cc2ccc(NC(=O)C(F)(F)F)c(OC)c2)ccc1NC(=O)C(F)(F)F | 5%
O=C(CCc1ccccc1)Oc1ccccc1Cl | i
CCN(CC)C(=O)c1ccccc1NC(=O)c1ccc(C)cc1 | i

An excerpt of these results, with each value named.
O=[N+]([O-])c1ccc(N2CCN(S(=O)(=O)Cc3ccccc3)CC2)cc1N1CCN(Cc2ccccc2)CC1
  Mtb H37Rv = 9%

CCN(CC)S(=O)(=O)c1ccc(NC(=O)c2ccc(OC)c([N+](=O)[O-])c2)cc1
  Mtb H37Rv = i

CCOc1ccc(NCc2ccc(OCC(=O)Nc3ccc(C)cc3C)c(OC)c2)cc1
  Mtb H37Rv = 26%

Screens as filed in PubChem BioAssay.
